Screening results from PubChem.
gsp agonist = gsp mutant agonism. gsp mutant cells, cAMP HTRF, 30 min; control for the full effect not named in the record. Potency, µM (top dose mostly 76.9 µM), inactives show at the highest dose activation (cAMP increase), actives largely listed as activators. actives 0.13% (n = 340,000). AID 624287; active = well fitted activation curve with a large enough effect; inconclusive = small, poorly fitted or top-dose-only effect, or another doubt; inactive = no such curve, though single readings can be large or run the other way; cell line not stated here;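 also: phosphodiesterase inhibitor Ro 20-1724 added with compounds to block cAMP breakdown; potency is read from the fitted curve at half-maximal effect; nearly all actives have a fitted effect of over 60% in size; about a fifth of the inactives were tested at one dose only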
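Cells in DMEM/10% FBS with G418 were pretreated with compounds in DMSO plus […] (300 uM stock) for 30 min at 37C. cAMP was measured by HTRF (cAMP-d2 plus anti-cAMP antibody-K) after 30 min at room temperature.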
D2 potentiator = positive allosteric modulators of human D2 dopamine receptor; DiscoveRx D2 beta-arrestin cells, luminescence, 90 min; 100% = 57 uM dopamine signal; potentiation, % (test concentration not listed); actives 0.23% (n = 360,000); active = potentiation of 50% or more; inconclusive = 30% to 50%; inactive = 30% or less;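 also: compound concentration not given in the record; tested on top of an EC20 dose of dopamine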
Target sequence (P14416 whole entry, looked up): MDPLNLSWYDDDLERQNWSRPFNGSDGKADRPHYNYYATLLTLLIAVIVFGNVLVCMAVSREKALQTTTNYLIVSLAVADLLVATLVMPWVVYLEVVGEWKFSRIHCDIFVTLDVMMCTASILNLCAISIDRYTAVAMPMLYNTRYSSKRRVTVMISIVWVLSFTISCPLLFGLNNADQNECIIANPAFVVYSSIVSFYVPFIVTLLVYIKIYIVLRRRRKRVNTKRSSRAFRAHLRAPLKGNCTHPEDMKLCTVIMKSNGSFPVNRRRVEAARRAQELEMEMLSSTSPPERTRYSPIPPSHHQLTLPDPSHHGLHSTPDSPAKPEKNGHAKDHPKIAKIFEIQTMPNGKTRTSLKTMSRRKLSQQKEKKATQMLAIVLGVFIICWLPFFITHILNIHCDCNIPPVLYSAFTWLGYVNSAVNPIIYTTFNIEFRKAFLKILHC
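PathHunter beta-arrestin assay in DiscoveRx D2 cells. Compounds were added with an EC20 of dopamine (50 nM final) for 90 min at 37 deg C. Luminescence was read 1 h after detection reagent, with 57 uM dopamine as the EC100 control.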
ClpP mod = qHTS Assay for Activators of ClpP. AID 651965, 2013. Potency, µM (highest dose often 57.5 µM), without a hit: top-dose activity change, negative = active. purified B. subtilis ClpP, FRET peptide cleavage, 20 min. actives 1.9% (n = 340,000); active = well fitted falling curve with a large enough effect; inconclusive = small, poorly fitted or top-dose-only effect; inactive = no such curve, though single readings can be large or run the other way; also: potency is read from the fitted curve at half-maximal effect; the source files actives as falling curves though it sought activators and does not explain the sign; nearly all actives have a fitted effect of over 65% in size; many hits overshoot -100%
Target sequence (P80244 whole entry, looked up): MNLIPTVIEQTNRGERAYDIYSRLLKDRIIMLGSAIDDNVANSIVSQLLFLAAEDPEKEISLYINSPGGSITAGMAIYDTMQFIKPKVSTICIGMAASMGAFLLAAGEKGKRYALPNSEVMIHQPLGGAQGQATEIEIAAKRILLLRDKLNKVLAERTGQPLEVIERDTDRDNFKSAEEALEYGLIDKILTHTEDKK
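Buffer: 100 mM Tris/HCl pH8, 100 mM KCl, 0.05% low protease BSA, 2.5% glycerol, 0.01% Tween-20. ClpP 10 microg/mL final; 20 min RT; delta FRET normalized to ADEP and DMSO controls.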
gsp antag = antagonists of gsp mutant (McCune-Albright syndrome); gsp-mutant cells, cAMP HTRF, 30 min; control for the full effect not named in the record; Potency, µM (series often up to 76.9 µM), inactives show at the highest dose activity change, negative = inhibition, hits mostly inhibitors; actives 0.4% (n = 340,000); active = falling curve of any shape with a large fitted effect; inconclusive = falling curve, mostly with a smaller effect; inactive = flat or rising curve; cell line not stated here;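 also: intracellular cAMP measured with PDE inhibitor Ro 20-1724 present during compound exposure; potency is read from the fitted curve at half-maximal effect; % is scaled to controls: 0 for no effect and ±100 for the full control effect; nearly all actives have a fitted effect of over 65% in size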
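HTRF cAMP read-out (cAMP-d2 plus anti-cAMP antibody-K in lysis buffer, 30 min RT). Before lysis, cells are exposed to compounds with […] for 30 min at 37C in DPBS containing Ca/Mg, BSA and Tween 20.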
TRPV1 PAM = potentiators of human vanilloid receptor 1 (TRPV1); TRPV1-expressing cells, Fluo-8 calcium influx, capsaicin EC20 potentiation; host cell line not named in the record; control for the full effect not named in the record; actives 0.02% (n = 320,000); Q8NER1; potentiation, % at 8.33 µM; active means potentiation above 80%; inconclusive means 30% to 80%; inactive means below 30%; also: 0% is about no effect
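TRPV1-expressing cells were cultured overnight at 35.5C and loaded with Fluo-8 calcium dye for 40 to 90 min at room temperature. After a 10 s baseline, compound was added and calcium influx was read kinetically for 3 min (ex 480/em 520 nm).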
Sfp PPTase inh = blocks B. subtilis Sfp PPTase activity | Potency, µM, for the others: max response, negative = inhibition, most hits filed as inhibitors | actives 3.5% (n = 310,000) | AID 1490 | Biochemical Sfp PPTase activity, qHTS | Q9F4F7; active = well fitted inhibition curve with a large enough effect; inconclusive = small, poorly fitted or top-dose-only effect, or another doubt; inactive = no such curve, though single readings can be large or run the other way;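 also: the enzyme is Sfp with the accession as filed and its product quenches rhodamine fluorescence; potency is read from the fitted curve at half-maximal effect; 0% = enzyme reaction without inhibitor and -100% = no enzyme wells; top concentration of the series not given in the record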
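Step 1, compound plus 15 nM Sfp-PPTase, 15 min, room temperature. Step 2, add rhodamine-CoA (5 uM) and BHQ-2-YbbR (12.5 uM). Step 3, read 525/598 nm fluorescence at 0 and 30 min.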
Menin MLL FP FL = displaces fluorescein MLL peptide from human menin | Fluorescence polarization, fluorescein-MLL peptide displacement from menin | 290,000 tested, under 10 active | AID 1766 | FP activity change, % at 61.4 µM; inconclusive = falling polarisation curve, or a change in total fluorescence; inactive = total fluorescence flat and polarisation flat or rising; no compound was filed as active; the % refers to the polarisation; negative = inhibition;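 also: % of control where 0% means no effect; inhibitors lower the polarisation; unlabelled MLL peptide was the positive control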
Numbers without * were called inactive; ? = inconclusive; / = not tested or not shown; & = joins results of further samples; [ ] = remark or other dose. An unsorted share of the library; about 5.1% have a hit in one of these screens.

SMILES	gsp agonist	D2 potentiator	ClpP mod	gsp antag	TRPV1 PAM	Sfp PPTase inh	Menin MLL FP FL
Cc1csc(NC(=O)c2ccc(C)c(S(=O)(=O)N3CCCCC3)c2)n1	3%	-16	2.0%	-4%	-11	3%	1.7
Cc1ccccc1OCCC(=O)N1CCN(S(=O)(=O)c2ccc(Br)cc2)CC1	-13%	-24	1.5%	?	6	/	/
O=C(NC(=S)Nc1ccccc1N1CCOCC1)c1ccc(-c2ccccc2F)o1	19%	-6	/	0%	3	4%	2.4
Cc1ccc(CN(C)C(=O)COC(=O)CSc2cc(C)c3ccccc3n2)cc1	18%	2	-4.6%	-1%	-5	/	/
COc1ccc(C2=NN(C(=O)CSc3nnnn3C)C(c3ccco3)C2)cc1 (stereo not given)	?	1	-3.0%	7%	-3	/	/
CSCC[C@H](NC(=O)OC(C)(C)C)C(=O)N1CCC(C(=O)N[C@@H](C)C(=O)O)CC1	-33%	-1	-0.6%	1%	9	5%	-1.3
COc1ccc(CCNc2nc(-c3cccnc3)nc3ccccc23)cc1OC	7%[15.4 µM]	5	/	10%	-19	-3%	-4.3
O=C(NC(Cc1ccccc1)C(=O)O)/C(=C\c1ccco1)NC(=O)c1ccccc1 (stereo not given)	-9%	-7	0.9%	-10%	-7	35µM*	?
CC(C)(C)c1ccc(Oc2ccc(NC(=O)c3ccco3)cn2)cc1	2%	-22	-2.5%	-4%	-10	16%	5.0
CN(CC(=O)Nc1ccc(F)c(F)c1F)C(=O)CN1C(=O)C2CCCCC2C1=O (stereo not given)	-19%	2	-0.6%	-5%	3	18%	-2.8
O=C(Cc1ccc(NS(=O)(=O)c2cccc(C(F)(F)F)c2)cc1)NCCN1CCOCC1	0%[15.4 µM]	-1	/	1%	7	/	/
CC(=O)NN1C(=O)/C(=C\c2ccccc2)SC1=S	-16%	-5	1.8%	-3%	3	13%	6.2
N#CC1=C(N)Oc2n[nH]c(-c3cccs3)c2C1c1cccs1 (stereo not given)	-9%	9	-0.6%	-6%	-7	-10%	2.5
CN1/C(=C\C(=O)COC(=O)c2ccc([N+](=O)[O-])o2)C(C)(C)c2ccccc21	6%[15.4 µM]	4	-3.3%	-6%	-10	10%	3.9
CCCCCCc1ccc(OCC(=O)OC)cc1OCC(=O)OC	-16%	2	1.4%	-15%	4	7%	0.9
CCC(=O)OC1(C)C(=O)C=C2C=C(C3CC3)OC=C2C1=O (stereo not given)	15%	4	1.0%	-6%	/	?	2.9
Cc1ccccc1C1N(c2nccs2)C(=O)C2CCCN21 (stereo not given)	4%	-6	/	-2%	-11	50µM*	-11
CSc1nnc2c3cc(C)ccc3n(Cc3ccccc3)c2n1	1%	6	-1.3%	-16%	-9	56µM*	6.0
Cc1ccc(C(=O)NC(NCc2ccccc2)C(Cl)(Cl)Cl)cc1 (stereo not given)	-3%[15.4 µM]	14	14µM*	13%	-2	9%	-0.5
Cc1ccc(C2CC(c3ccccc3)=NN2C(=O)CSc2nnc(-c3ccc(Cl)cc3)o2)o1 (stereo not given)	-25%	1	-0.3%	9%	?	-6%	4.2
N#C/C(C(=S)Nc1ccccc1)=C1/NN=C(N2CCOCC2)N1c1ccccc1	16%	-9	/	-7%	6	2%	-4.8
Cc1ccc(NC(=O)N/C=C/c2ccco2)cc1	25%	-6	-3.4%	1%	-4	?	?
CCc1ccc(/C(C)=N/NC(=O)c2ccccn2)cc1	2%	-6	2.5%	-3%	21	-4%	-0.5
CCOc1ccc(C(=O)Nc2ccc(N3CCN(C)CC3)cc2)cc1Br	-10%	-15	18µM*	1%	-5	6%	4.9
Nc1nc(Nc2ccccc2F)sc1C(=O)c1ccccc1	12%	0	0.1%	0%	-20	-10%	-12
O=C(CN1CCN(c2ccc(O)cc2)CC1)Nc1ccc2c(c1)OCCO2	-28%	-10	-8.6%	-2%	-1	10µM*	-1.6
CC1=NN(c2ccccc2)C(=O)C1c1ccccc1 (stereo not given)	-27%	27	-2.8%	1%	11	9%	2.0
Cn1c(CCCOc2ccc(Cl)cc2Cl)nnc1SCC(=O)Nc1cccc(F)c1	-2%[15.4 µM]	3	0.3%	-23%	14	24%	6.3
Cn1nc(C(=O)NCc2ccc(F)cc2)cc1C(=O)NCc1ccc(F)cc1	1%	-10	2.0%	-13%	6	/	/
c1ccc(-c2nc3ccccn3c2NC2CCCC2)nc1	14%	-1	/	-15%	12	10µM*	-2.9
CN(C)CCOC(=O)C1(c2ccccc2)CCCC1	-19%	-31	-2.1%	8%	7	10%	1.0
COc1ccc(-c2nc(-c3ccc(NC(=O)c4ccncc4)cc3)no2)cc1OC	-1%	0	0.2%	?	7	12%	0.1
CC(=O)NCCc1ccc(S(=O)(=O)Nc2ccc(C)c(S(=O)(=O)N3CCOCC3)c2)cc1	?	-7	-4.6%	-3%	-2	8%	/
CCOC(=O)c1ccc(S(=O)(=O)N2CCN(CC(=O)NC(=O)NC(C)(C)C)CC2)cc1	0%	-12	-4.4%	-12%	0	6%	-0.2
Cc1ccc(C(=O)OCC(=O)NC2CCCC(C)C2C)cc1S(=O)(=O)N1CCCCC1 (stereo not given)	15%	-1	2.8%	-22%	19	/	/
O=C(NNC(=O)c1ccco1)c1ccc(NS(=O)(=O)c2cccs2)cc1	-3%[15.4 µM]	-16	/	1%	5	/	/
CCCOc1ccc(/C=N/NC(=O)CN2CCCCC2)cc1OCC	2%	-5	-14%	5%	-1	14%	3.9
CC(=O)c1ccc(OCC(=O)OCC(=O)NCc2ccco2)cc1	11%	-6	0.5%	-14%	6	/	/
CCOc1cc(N2CCOCC2)c(OCC)cc1NC(=O)CN1C(=O)NC2(CCc3ccccc32)C1=O (stereo not given)	-15%	-9	-4.1%	-8%	2	12%	0.3
Cc1nc(Nc2ccccc2)sc1C(=O)Nc1ccccc1	10%[15.4 µM]	-4	0.2%	?	-6	-6%	3.8
O=C1C(=NO)CCCc2ccccc21	13%	-8	-0.8%	-1%	/	/	/
COc1ccc(C(C(=O)NCCC(C)C)N(CCCO)C(=O)c2snc(C(N)=O)c2N)cc1OC (stereo not given)	-23%	-4	-11%	14%	2	2%	3.1
O=c1c2ccccc2nc(/C=C/c2c[nH]c3ccccc23)n1CCO	-14%[15.4 µM]	11	1.2%	-27%	5	-1%	7.9
COc1ccc(-c2csc(NC(=O)CN3C(=O)CCC3=O)n2)cc1OC	1%	-10	-1.9%	15%	-11	12%	-0.8
O=C(Cc1ccc(Br)cc1)N1CCN(c2ccccn2)CC1	?	5	?	7%	-4	-1%	5.8
CC(OC(=O)c1c[nH]c2ccccc12)C(=O)N1CCCC1 (stereo not given)	9%	-2	2.0%	8%	2	/	/
CC(=O)c1sc(NC(=O)COc2c(C)cc(Cl)cc2C)nc1C	/	/	/	/	19	7%	2.3
COc1ccc(C(=O)CC(=O)C(=O)Nc2cc(OC)ccc2OC)cc1	?	-4	/	-6%	?	18%	-0.8
O=C(COC(=O)C1COc2ccccc2O1)Nc1ccc(Cl)cc1 (stereo not given)	15%	-3	1.4%	11%	-7	/	/
COc1cc(S(=O)(=O)N2CCCC3(CCCCC3)C2)ccc1-n1cnnn1	5%	-4	-2.1%	-6%	-1	-2%	1.8
COC(=O)C1CSC(C)(C)C(=O)N1 (stereo not given)	-40%[inhibitor]	-2	1.9%	12%	-9	10%	4.5
O=C(Nc1cccnc1)c1ccc(NS(=O)(=O)c2cccc([N+](=O)[O-])c2)cc1	?	1	/	-3%	4	5%	7.8
COc1ccc(OC)c(NC(=O)COC(=O)COc2ccc(Nc3ccccc3)cc2)c1	0%[15.4 µM]	-5	-3.5%	-6%	/	/	/
Cc1nc(S(=O)(=O)N2CCN(C3c4ccccc4-c4ccccc43)CC2)cn1C	29%	-10	/	-9%	5	-4%	-1.2
C=CCOc1c2ccc(C(=O)NCc3ccc(OC)cc3)cc2nn1C	/	-7	?	1%	1	15%	0.0
O=C(Nc1ccccc1N1CCOCC1)c1cc2ccccc2o1	?	-5	/	-5%	-16	8%	5.5
COc1cc(C(c2c(C(=O)O)[nH]c3ccccc23)c2c(C(=O)O)[nH]c3ccccc23)ccc1OCc1ccccc1	-74%[inhibitor]	2	/	10%	-15	-5%	-0.1
COc1cccc(/C=C2\NC(=O)NC2=O)c1O	41%	-5	1.3%	3%	-1	5%	?
O=C(CN1C(=O)c2ccccc2C1=O)Nc1ccc(Cl)cn1	-2%[15.4 µM]	-5	/	1%	-13	12%	4.8
Cc1ccc(-n2c(-c3ccco3)nc3c(cnn3-c3ccccc3C)c2=O)cc1	5%	2	6.3%&-1.4%	0%	-6	-8%	0.8
Next results
SMILES	gsp agonist	D2 potentiator	ClpP mod	gsp antag	TRPV1 PAM	Sfp PPTase inh	Menin MLL FP FL
CC(C)CNC(=O)c1cccc(NC(=O)C(C)Oc2ccccc2)c1 (stereo not given)	-23%[15.4 µM]	-5	/	6%	-1	9%	-0.3
COc1ccc(C(C)=O)cc1CSc1ccc(S(=O)(=O)N2CCOCC2)cn1	-43%[inhibitor]	2	-0.9%	-12%	-9	/	/
CCOC(=O)c1ccccc1NC(=O)COC(=O)C(CC)Oc1ccccc1 (stereo not given)	-71%[inhibitor]	-1	?	/	/	/	/
O=C(N/N=C/c1ccncc1)c1ccc(NS(=O)(=O)c2cccs2)cc1	-12%[15.4 µM]	5	/	-1%	-7	0%	0.0
CCOC(=O)N1CCC(N2C(=O)c3ccc(C(=O)Nc4ccc(F)cc4F)cc3C2=O)CC1	19%	-7	1.2%	1%	10	6%	2.2
CCOC(=O)c1cc(=O)n2c(nc3ccccc32)[nH]1	/	-3	3.9%	-5%	-5	/	/
CN1CCNC(=O)C1CC(=O)NCC1(c2ccccc2)CCCCC1 (stereo not given)	-49%[inhibitor]	-7	-3.1%	0%	-2	2%	4.4
CC(=O)c1ccc(NC(=O)C(C)N(C)CC(=O)Nc2ccc(Cl)cc2)cc1 (stereo not given)	-16%[15.4 µM]	3	/	-7%	1	-2%	-0.8
